# rRNA inh HTS: reduced GFP signal of wild-type E. coli, primary screen, bacterial rRNA inhibitor project, GFP/RFP fluorescence, OD600, single point; E. coli WT GFP vs humanized-ribosome RFP mutants, 24 h; active compounds read low; DMSO median 0, no signal -100; GFP signal change (wild-type ribosome), % (test concentration not listed); 1.6% of 350,000 active;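 active = significant combined selectivity score with lowered wild-type GFP, culture density cut under 30%, mutant RFP and density less affected; inactive = any of these conditions unmet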; note: one replicate is shown; some compounds called inactive have numbers as strong as hits
# rRNA inh HTS OD600: recorded beside rRNA inh HTS, whose call it bears; OD600 change, %; measured here: OD600 growth;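 optical density of the mix in the first replicate; 0 = DMSO median and -100 = no signal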
# rRNA inh HTS RFP: also measured in rRNA inh HTS; calls as there; RFP signal change, %; measured here: RFP humanized mutant strains;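 first replicate; 0 = DMSO median and -100 = no signal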
# * marks the source's active call; other numbers are inactive results.
SMILES,rRNA inh HTS,rRNA inh HTS OD600,rRNA inh HTS RFP
C[C@@H]1CN([C@@H](C)CO)S(=O)(=O)c2ccc(C#CC3CC3)cc2O[C@@H]1CN(C)C(=O)C1CC1,-7,-5,0.8
O=c1c2cc(F)ccc2sn1-c1ccccc1Cl,-51,-80,-20
O=C(C[C@H]1C=C[C@@H](NS(=O)(=O)c2ccc(F)cc2)[C@H](CO)O1)N1CCc2ccccc2C1,-4,0,-2.6
CC(C)C(=O)Nc1ccc2c(c1)C(=O)N(C)[C@@H]1CC[C@H](CC(=O)NCc3ccc(F)cc3)O[C@@H]1CO2,0,2,0.5
CC(C)NC(=O)Nc1ccc2c(c1)C(=O)N([C@H](C)CO)C[C@H](C)[C@@H](CN(C)Cc1ccc(C(=O)O)cc1)O2,0,4,0.8
CCNC(=O)C1(C)CCCN(C(=O)c2cc(-c3cccs3)oc2C)C1 (stereo unspecified),3,12,1.2
CC(=O)c1cccc(NC(=O)C(C)Sc2nnc3ccccn23)c1 (stereo unspecified),11,22,-1.5
O=C(NCCCn1ccnc1)c1[nH]c(C(F)(F)F)nc1-c1ccccc1,2,3,-3.2
COc1ccc(-c2cc(NC(=O)Cc3c[nH]c4ccccc34)ccc2N(C)c2cccnc2)cc1F,-10,-12,-0.7
C[C@@H]1CCCCO[C@@H](CN(C)S(=O)(=O)c2ccccc2)[C@H](C)CN([C@H](C)CO)C(=O)c2cc(NC(=O)Nc3ccccc3)ccc2O1,2,6,2.5
N#C[C@H]1[C@@H](c2ccccc2C2=CCCCC2)[C@@H](CO)N1C(=O)c1ccccn1,-11,-19,-4.3
COCOc1cccc(CN2CCC(C)(Oc3cccc(C#N)c3)C2)c1 (stereo unspecified),16,16,7.5
CC(=O)N(C)C[C@H]1Oc2c(NC(=O)NC(C)C)cccc2C(=O)N(C)C[C@@H]1C,-3,1,-1.4
CC1(C(=O)NCc2ccccc2)Cc2c(-c3cccc(C(N)=O)c3)ccnc2O1 (stereo unspecified),-7,-16,-1.4
C[C@H](CO)N1C[C@H](C)[C@H](CN(C)S(=O)(=O)c2ccccc2C#N)OCc2cnnn2CCCC1=O,2,4,-0.2
C[C@H](NC(=O)C[C@H]1C[C@@H]2c3cc(NC(=O)NC4CCCC4)ccc3O[C@@H]2[C@@H](CO)O1)c1ccccc1,0,1,0.3
O=C(Nc1ccc(F)cc1)N1CC(=O)N2[C@H](CO)[C@H](c3ccc(-c4cccc(F)c4)cc3)[C@@H]2C1,-42,-74,-3.4
CCCN(C)C[C@@H]1OCCCC[C@H](C)Oc2ccc(NC(=O)Nc3ccc(C(F)(F)F)cc3)cc2C(=O)N([C@H](C)CO)C[C@@H]1C,-3,-26,13
CNC[C@H]1Oc2ccc(NC(=O)CCN3CCOCC3)cc2CC(=O)N([C@@H](C)CO)C[C@@H]1C,6,11,0.5
COc1ccccc1NC(=O)N1CCCCN2[C@H](C1)[C@@H](c1ccc(-c3cccc(C)c3)cc1)[C@@H]2CO,-3,-2,4.8
COc1ccc(CN(C)C[C@@H]2OCCCC[C@@H](C)Oc3ccc(NC(=O)c4ccncc4)cc3C(=O)N([C@H](C)CO)C[C@H]2C)cc1,1,1,-1.9
CCC(=O)Nc1ccc2c(c1)OC[C@H](C)N(C(=O)Cc1ccccn1)C[C@H](C)[C@@H](OC)CN(C)C2=O,1,1,0.3
COc1ccccc1-c1cn(CC[C@H]2CC[C@@H](NS(=O)(=O)c3ccccc3C)[C@H](CO)O2)nn1,-4,-9,4.5
O=C(C[C@@H]1CC[C@@H](NC(=O)NC2CCCCC2)[C@@H](CO)O1)NCc1ccccc1,0,-6,-0.6
COc1ccc(NC(=O)Nc2ccc3c(c2)C(=O)N([C@@H](C)CO)C[C@H](C)[C@@H](CN(C)C(=O)Nc2ccc4c(c2)OCO4)O3)cc1,1,3,-1.5
COCCCN1C(=O)C(CC(=O)NCCCN(C)C)CC(C(=O)N(C(C)C)C(C)C)=C1C (stereo unspecified),9,21,0.0
Cc1ccc2nc(-c3cccc(Br)c3)c(Cc3ccccc3C(F)(F)F)n2c1,-12,-9,21
CCCNC(=O)N1[C@H](CO)[C@H](c2ccc(-c3ccccc3)cc2)[C@H]1CNC(C)=O,-6,-3,0.6
CO[C@H](CN(C)S(=O)(=O)c1ccc(Cl)cc1)[C@@H](C)CN([C@@H](C)CO)S(=O)(=O)c1cccc(Cl)c1,2,-14,2.1
COc1ccc(S(=O)(=O)Nc2ccc3c(c2)C(=O)N([C@@H](C)CO)C[C@@H](C)[C@H](CN(C)S(=O)(=O)c2ccc(C)cc2)OCCCC[C@H](C)O3)cc1,-3,1,0.5
C[C@@H]1CN([C@@H](C)CO)C(=O)c2cccc(NS(C)(=O)=O)c2O[C@H]1CN(C)Cc1ccc(C(F)(F)F)cc1,0,-2,-0.8
CN1CCN(C(=O)C[C@@H]2CC[C@@H]3[C@H](COC[C@H](O)CN3Cc3cccc(-c4ccncc4)c3)O2)CC1,4,6,-2.6
CO[C@@H]1CN(C)C(=O)c2cc(NC(C)=O)ccc2OC[C@@H](C)N(Cc2cccc(F)c2)C[C@@H]1C,-3,-7,-1.0
CC(C)NC(=O)N(C)C[C@H]1Oc2cc(C#Cc3ccccn3)ccc2S(=O)(=O)N([C@H](C)CO)C[C@H]1C,4,1,2.6
CCCN1[C@H](CO)[C@H](c2ccc(C#CC3CCCCC3)cc2)[C@@H]1CNC(=O)C1CC1,-41,-52,17
COC(=O)c1ccc(CN2CC(=O)N3[C@H](C2)[C@H](c2ccc(-c4ccccc4F)cc2)[C@@H]3CO)cc1,1,5,3.4
C/C=C/c1ccc2c(c1)O[C@H](CN(C)C(=O)c1ccccc1)[C@H](C)CN([C@@H](C)CO)S2(=O)=O,-6,0,-0.6
O=C(c1ccc2c(c1)OCO2)N1CC(=O)N2[C@H](C1)[C@H](c1ccc(C#CCC3CCCC3)cc1)[C@@H]2CO,-2,-20,21
C[C@H]1CN([C@@H](C)CO)C(=O)c2cc(NC(=O)Cc3cn(C)c4ccccc34)ccc2O[C@H]1CN(C)Cc1ccc(-c2ccccc2)cc1,7,2,5.1
COc1ccccc1-c1ccc2c(c1)O[C@H](CN(C)C(=O)c1ccncc1)[C@@H](C)CN([C@@H](C)CO)S2(=O)=O,0,-1,-0.3
C[C@H]1CN([C@@H](C)CO)C(=O)c2c(c3ccccc3n2C)-c2ccccc2CO[C@H]1CN(C)C(=O)[C@H](Cc1ccccc1)N(C)C,-1,-4,-0.4
CC=Cc1ccc2n(c1=O)C[C@H]1[C@H](CO)[C@@H](C(=O)NCCc3ccncc3)N[C@@H]21 (mixture of isomers),3,8,-1.5
COc1ccc(CN(C)C[C@H]2Oc3ccc(NS(=O)(=O)c4ccc(F)cc4)cc3C(=O)N([C@H](C)CO)C[C@H]2C)cc1,-6,0,-1.8
O=C(N[C@H]1CC[C@@H](CCNS(=O)(=O)c2ccc(F)cc2)O[C@@H]1CO)c1cnccn1,4,-7,-2.2
COc1ccc(CN(C)C[C@H]2OCCCC[C@H](C)Oc3ccc(NC(=O)c4ccccc4)cc3C(=O)N([C@@H](C)CO)C[C@H]2C)cc1,3,0,3.2
Cc1ccc(-c2ccc([C@H]3[C@@H](CO)N4C(=O)CN(C(=O)Nc5ccc(F)cc5)C[C@@H]34)cc2)cc1,-23,-57,21
O=C(C1CCCC1)N1CC(=O)N2[C@H](C1)[C@@H](c1ccc(C#Cc3cccc(F)c3)cc1)[C@@H]2CO,-28,-43,22
C/C=C/c1ccc([C@H]2[C@@H](CO)N3CCCCN(C(=O)Nc4ccc(OC)cc4)C[C@H]23)cc1,-3,15,-0.5
CCC(=O)N1CC(=O)N2[C@@H](CO)[C@@H](c3ccc(-c4cccnc4)cc3)[C@@H]2C1,5,-9,-1.2
C[C@H]1CN([C@@H](C)CO)C(=O)c2cc(NC(=O)Cc3cn(C)c4ccccc34)ccc2O[C@@H]1CN(C)CC1CC1,1,-3,1.0

# The list goes on.
SMILES,rRNA inh HTS,rRNA inh HTS OD600,rRNA inh HTS RFP
Cc1ccc(S(=O)(=O)N(C)C[C@@H]2Oc3ccc(NS(=O)(=O)c4ccc(Cl)cc4)cc3CC(=O)N([C@H](C)CO)C[C@H]2C)cc1,-3,-6,-0.3
O=C1[C@H](Cc2ccc(C(F)(F)F)cc2)CCn2cc(nn2)COC[C@@H]2CCCCN2C(=O)[C@H](Cc2ccc(C(F)(F)F)cc2)CCn2cc(nn2)COC[C@@H]2CCCCN12,-4,0,2.4
Cc1ccc(S(=O)(=O)N(C)C[C@H]2OCCCC[C@H](C)Oc3ccc(NS(C)(=O)=O)cc3C(=O)N([C@@H](C)CO)C[C@H]2C)cc1,-2,-4,0.7
C[C@H](CO)N1C[C@H](C)[C@@H](CN(C)C(=O)C2CC2)Oc2ncc(Br)cc2C1=O,6,18,-2.5
O=C(NCC[C@@H]1CC[C@@H](NS(=O)(=O)c2cccc(F)c2)[C@H](CO)O1)C1CCC1,0,1,-1.2
CN1C[C@H]2[C@@H](c3ccccc31)[C@H](CO)N2Cc1ccccc1Cl,-16,-36,-6.1
O=C(C[C@@H]1CC[C@H]2[C@@H](COC[C@H](O)CN2C(=O)c2ccccc2F)O1)NCc1ccccc1,-2,1,-2.6
C[C@H]1CN([C@@H](C)CO)C(=O)c2cc(NC(=O)c3ccncc3)ccc2O[C@H]1CN(C)Cc1ccncc1,4,12,0.8
FC(F)(F)c1cccc(-c2cc3nc(NCCOc4ccccc4)ccn3n2)c1,7,12,1.6
Cc1noc(C)c1NC(=O)N(C)C[C@H]1Oc2ccc(NC(=O)NC3CCCCC3)cc2CC(=O)N([C@H](C)CO)C[C@H]1C,5,-1,-2.4

# Part of the list above, reformatted.
# Results follow in this order: rRNA inh HTS | rRNA inh HTS OD600 | rRNA inh HTS RFP
- O=C1[C@H](Cc2ccc(C(F)(F)F)cc2)CCn2cc(nn2)COC[C@@H]2CCCCN2C(=O)[C@H](Cc2ccc(C(F)(F)F)cc2)CCn2cc(nn2)COC[C@@H]2CCCCN12
  -4 | 0 | 2.4
- Cc1ccc(S(=O)(=O)N(C)C[C@H]2OCCCC[C@H](C)Oc3ccc(NS(C)(=O)=O)cc3C(=O)N([C@@H](C)CO)C[C@H]2C)cc1
  -2 | -4 | 0.7
- C[C@H](CO)N1C[C@H](C)[C@@H](CN(C)C(=O)C2CC2)Oc2ncc(Br)cc2C1=O
  6 | 18 | -2.5
- O=C(NCC[C@@H]1CC[C@@H](NS(=O)(=O)c2cccc(F)c2)[C@H](CO)O1)C1CCC1
  0 | 1 | -1.2
- CN1C[C@H]2[C@@H](c3ccccc31)[C@H](CO)N2Cc1ccccc1Cl
  -16 | -36 | -6.1
- O=C(C[C@@H]1CC[C@H]2[C@@H](COC[C@H](O)CN2C(=O)c2ccccc2F)O1)NCc1ccccc1
  -2 | 1 | -2.6
- C[C@H]1CN([C@@H](C)CO)C(=O)c2cc(NC(=O)c3ccncc3)ccc2O[C@H]1CN(C)Cc1ccncc1
  4 | 12 | 0.8
- FC(F)(F)c1cccc(-c2cc3nc(NCCOc4ccccc4)ccn3n2)c1
  7 | 12 | 1.6
- Cc1noc(C)c1NC(=O)N(C)C[C@H]1Oc2ccc(NC(=O)NC3CCCCC3)cc2CC(=O)N([C@H](C)CO)C[C@H]1C
  5 | -1 | -2.4

# More compounds follow.
SMILES,rRNA inh HTS,rRNA inh HTS OD600,rRNA inh HTS RFP
CN1C(=O)c2cc(NC(=O)c3ccccc3)ccc2OC[C@H]2O[C@H](CC(=O)NCC3CC3)CC[C@H]21,0,0,0.0
COCC(=O)Nc1ccc2c(c1)OC[C@H](C)N(C(=O)Cc1cccnc1)C[C@H](C)[C@H](OC)CN(C)C2=O,0,1,-0.3
O=C(C[C@@H]1C[C@@H]2c3cc(NC(=O)CC4CC4)ccc3O[C@@H]2[C@@H](CO)O1)NCc1ccccc1F,2,1,-0.7
Cc1ccccc1-c1ccc([C@@H]2[C@@H](CO)N3C(=O)CN(C(=O)Cc4ccccn4)C[C@H]23)cc1,-3,-2,4.2
COCC#Cc1ccc2c(c1)O[C@H](CN(C)Cc1ccc3c(c1)OCO3)[C@H](C)CN([C@H](C)CO)S2(=O)=O,-2,-9,-0.1
CN(C)c1cccc(NC(=O)C2Cc3c(-c4ccc(Cl)cc4)ccnc3O2)c1 (stereo unspecified),-2,-7,-2.3
CN1C(=O)c2cc(NC(=O)NCc3ccccc3)ccc2OC[C@@H]2O[C@H](CC(=O)NCC3CCCCC3)CC[C@@H]21,-3,-16,-1.4
C[C@@H]1CN([C@H](C)CO)C(=O)c2cc(NS(=O)(=O)c3cn(C)cn3)ccc2O[C@@H](C)CCCCO[C@H]1CN(C)Cc1ccc(C(=O)O)cc1,0,2,0.1
Cc1noc(C)c1S(=O)(=O)N(C)C[C@@H]1OCCCC[C@H](C)Oc2ccc(NC(=O)NC3CCCCC3)cc2C(=O)N([C@H](C)CO)C[C@H]1C,-1,0,0.4
C[C@H]1CN([C@@H](C)CO)C(=O)c2cc(NC(=O)CCC(F)(F)F)ccc2O[C@H]1CN(C)S(=O)(=O)c1ccccc1,0,6,-0.2
C[C@@H]1CN([C@@H](C)CO)C(=O)c2cc(NC(=O)Nc3ccc4c(c3)OCO4)ccc2O[C@H]1CN(C)C(=O)Nc1cccc2ccccc12,-7,-9,-0.6
C[C@@H]1CN([C@H](C)CO)C(=O)c2cc(/C=C/c3ccccc3)cnc2O[C@H]1CN(C)S(C)(=O)=O,-5,1,-1.2
COc1ccc(NC(=O)N(C)C[C@H]2Oc3c(NS(=O)(=O)c4ccc(Cl)cc4)cccc3C(=O)N([C@H](C)CO)C[C@@H]2C)cc1,-1,-9,1.2
C[C@@H]1CN([C@@H](C)CO)C(=O)Cc2cc(NC(=O)c3ccncc3)ccc2O[C@@H]1CN(C)S(=O)(=O)c1cccs1,-3,3,1.9

# Not all compounds are listed. The share of hits here may be higher or lower than overall.
